Source: PubChem BioAssay (several laboratories)
Sa RN4220 lethal – kills Staphylococcus aureus RN4220. S. aureus RN4220 growth, OD600, 16 h. inhibition, % (concentration not given with the values). 330,000 tested, 0.33% active. AID 1259311;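 active = z-score of -3 or lower and OD600 up to 0.18 on both plates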;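 note: plate controls were untreated cells for no effect and reference antibiotic for full effect; stock transfer was 100 nL into about 80 µL; one replicate is shown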
BJeLR lethal – kills HRASV12-expressing BJeLR cells | BJeLR (HRASV12) viability, CellTiter-Glo ATP luminescence, 48 h; reference of the scale not given here | inhibition, % (test concentration not listed) | 300,000 tested, 0.17% active | AID 1554;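 active = replicate mean above 50%; inconclusive = above 50% but judged a plate artefact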;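 note: 50 nL library stock added to about 25 µL; numbers are from one replicate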
PrP UTR inh – inhibition of PrP 5' UTR reporter expression | cell-based PrP 5' UTR mRNA reporter, plate reader | inhibition, % (test concentration not listed) | 340,000 tested, 0.35% active | AID 488862;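 active = every replicate at 50% or more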;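 note: 0 = median of the neutral control wells; tested in H4 reporter cells; numbers are from one replicate; inactives centre near -14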
Sa ugtP lethal – kills S. aureus RN4220 lacking UgtP; S. aureus RN4220 ugtP deletion, OD600 growth, 16 h; some inactives read as strong as hits; growth inhibition, % (concentration not given with the values); 330,000 tested, 0.54% active;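 active = z-score under -3 and OD600 up to 0.15 on both plates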;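 note: plate controls were untreated wells for no effect and antibiotic for full effect; wells of about 80 µL received 100 nL stock; the first replicate is given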
Bead autofluor – flagged as autofluorescent in microsphere protease counterscreen. compound autofluorescence counterscreen, microsphere flow cytometry; stronger effect = higher value. fluorescence intensity (concentration not given with the values). 360,000 tested, 3.1% active. AID 624483;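 active = at least 3 SD above the mean of all compounds, about 16000 in these data; inconclusive = too few beads counted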;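 note: 100 nL of 1 mM stock went into each well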
Mtb hypoxia rep – inhibitors of hypoxia-regulated fluorescent reporter in Mycobacterium tuberculosis; M. tuberculosis hypoxia-regulated fluorescent reporter, fluorescence; fluorescence inhibition, % (test concentration not listed); 300,000 tested, 0.1% active;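 active = 35 to 45% if threefold the growth effect, above 45% if 1.5-fold the growth effect; inactive = the rest, general growth blockers included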;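 note: wells of about 50 µL received 100 nL stock; 0% = vehicle wells and 100% = reference inhibitor wells; whole bacteria with a GFP reporter of the hypoxia response; strong numbers were not always called active; many hits fall short of the cut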
Mtb hypoxia rep growth – further read-out of Mtb hypoxia rep, marked with its call; growth inhibition, %; measured here: M. tuberculosis growth (absorbance);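 0% = vehicle and 100% = reference antibiotic; read after six days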
Numbers without * were called inactive; ? = inconclusive; · = not tested or not shown; & = joins results of further samples.

molecule	Sa RN4220 lethal	BJeLR lethal	PrP UTR inh	Sa ugtP lethal	Bead autofluor	Mtb hypoxia rep	Mtb hypoxia rep growth
O=C(NC1CCN(c2ncccn2)CC1)c1ccccc1Cl	3.6	2	-6	8	3461	7	2
CN(C)P(=NC(=O)COc1ccc(Cl)cc1Cl)(N(C)C)N(C)C	12	11	-42	-4	10490	-2	11
COc1ccnc(CSC(N)=Nc2ccccc2OC)c1	6.8	13	-5	6	4296	16	7
CCOC(=O)N1CCN(Cc2nc3c(c(=O)[nH]c(=O)n3C)n2CCCc2ccccc2)CC1	9.2	-16	·	-2	9670	15	13
CCC(=O)Nc1cc(C(=O)N2CCC3(CC2)OCCO3)ccc1S(=O)(=O)c1ccc(C)cc1	4.2	1	-7	4	2834	-1	7
Cc1cc(O)c(-c2cc(C(=O)Nc3sc4c(c3C(=O)NCc3ccco3)CCC4)[nH]n2)cc1C	-2.7	-4	-27	-9	4982	-6	5
CC12CN3CC(C)(CN(C1)C3c1cc(Br)ccc1O)C2=O (configuration not stated)	0.9	-5	-12	1	3845	8	7
COc1ccc(OC)c(CNC(=O)CCNC(=O)Cn2ccc3ccccc3c2=O)c1	0.5	7	-30	-2	2894	·	·
COc1cc2c(cc1OC)C(Nc1ccccc1)=NC(C)(C)C2	4.0	3	-12	6	7161	4	3
O=C(Nc1sc2c(c1C(=O)O)CCCC2)c1cccs1	21	5	-17	-9	24122*	4	5
CC(C)CCOc1ccc(Cl)cc1CN1CCOCC1	-3.4	-6	-13	7	2770	·	·
COc1ccccc1N(CC(=O)NCCN1CCOCC1)S(=O)(=O)c1ccc(C)cc1	4.9	0	-16	7	4705	11	3
CC1CCC(NC(=O)COC(=O)CNC(=O)c2ccc3ccccc3c2)CC1 (configuration not stated)	2.9	·	-15	-3	3238	4	3
Cc1ncn(C23CC4CC(CC(O)(C4)C2)C3)n1	-3.2	-5	-11	-9	3771	·	·
Cc1ccc(C)c(NC(=O)C2CC(=O)N(C3CCCCC3)C2)c1 (configuration not stated)	2.9	-2	-8	8	3041	5	0
COc1cc(/C=N/Nc2nc(C)nc3c2cnn3-c2ccccc2)ccc1O	·	-8	16	·	4292	·	·
Cc1ccc(-n2c(N)c(C(=O)Nc3c(C)n(C)n(-c4ccccc4)c3=O)c3nc4ccccc4nc32)cc1	7.1	1	1	0	2819	3	4
O=C(Nc1ccccc1)C1=CC(c2ccccc2)CC(OCc2ccc(CO)cc2)O1 (configuration not stated)	3.2&3.0	·	·	3&-6	·	-2&11	1&7
Cc1cc(NC(=O)CSc2nc(=O)cc(N)n2-c2ccc(C)c(C)c2)no1	1.9	2	-27	6	6114	5	4
O=C(NC(=S)Nc1ccc(N2CCOCC2)cc1)c1ccc2c(c1)OCCO2	1.1	11	-26	34	2058	·	·
CCC(c1nnnn1Cc1ccco1)N(CCc1ccccc1)Cc1cc2cccc(C)c2[nH]c1=O (configuration not stated)	18	-10	-15	-14	4950	·	·
C#CCn1cnc2c(oc3ccccc32)c1=O	-2.1	-19	-68	1	·	-6	-10
COCCCNC(=O)C(C#N)c1nc2ccccc2nc1N1CCN(Cc2ccccc2)CC1 (configuration not stated)	12	6	-10	5	·	9	-33
CN(CC(=O)Nc1ccccc1Br)C(=O)c1ccccc1Cc1ccccc1	7.1	·	-4	0	3748	11	12
CCOc1nc(Nc2cc(Cl)ccc2OC)nc(OCC)n1	4.6	2	-10	-2	2470	9	10

New compounds follow:
molecule	Sa RN4220 lethal	BJeLR lethal	PrP UTR inh	Sa ugtP lethal	Bead autofluor	Mtb hypoxia rep	Mtb hypoxia rep growth
Cc1ccc(NC(=O)COc2cccc3c2OC(C)(C)C3)c(O)c1	8.3	·	-2	0	2678	10	5
CCC1(C)OC(c2ccccc2)=C/C(=C/C=C2C(=O)NC(=O)NC2=O)O1 (configuration not stated)	2.4	6	-12	-7	3468	-12	1
Cc1ccc(C2=NNC(c3cccc(F)c3)S2)cc1 (configuration not stated)	19	·	5	25	4598	5	6
CN(CC(=O)Nc1ccc(Cl)c(C(F)(F)F)c1)C(=O)c1ccccc1SCC(=O)N1CCCC1	1.1	·	10	3	2730	10	7
Cc1cccc(-c2nc(CS(=O)CC(=O)NC(C)CCc3ccccc3)c(C)o2)c1 (configuration not stated)	-0.5	4	-13	-6	5326	4	-3
CC(Nc1cc(=O)n(C)c(=O)n1C)c1ccccc1 (configuration not stated)	-4.9	-1	-6	3	5001	·	·
CSc1ccc(CSCC(=O)N2CCN(S(=O)(=O)c3ccc(C)cc3C)CC2)cc1	6.9	·	-31	-3	?	9	2
N#C/C(=C\c1ccc(O)c([N+](=O)[O-])c1)C(=O)NCc1ccccc1	8.3	12	-22	0	?	5	0
CCOc1ncccc1C(=O)Nc1cc2c(cc1Br)OCCO2	4.6	·	-52	15	2934	36*	63*
S=c1[nH]nc(Nc2ccccc2Cl)s1	16	5	-19	1	4505	11	13
CC(=O)Nc1ccccc1OCC(=O)NC1CCCCC1C (configuration not stated)	6.3	·	0	3	4001	1	-12
N#Cc1ccccc1S(=O)(=O)N1CCN(C(=O)CN2C(=O)NC3(CCCC3)C2=O)CC1	6.2	-5	-5	14	3736	-16	-4
Cc1cc(C(=O)Nc2sccc2C#N)c2ccccc2n1	5.1	-1	-15	4	3534	21	10
O=C(c1cccc([N+](=O)[O-])c1)N1CCN(c2ccc(N3CCOCC3)nn2)CC1	2.2	5	-32	3	5811	8	6
O=C(CCSCc1ccccc1Cl)N1CCN(c2ccccn2)CC1	8.7	2	-35	-3	10169	6	7
CC(=O)NC12CC3CC(C1)CC(C(=O)N(C)Cc1cccc(Cl)c1Cl)(C3)C2	3.5	-3	-37	4	5663	9	8
CC(=O)c1c(C)[nH]c(C2=NNC(=NCc3ccccc3)SC2)c1C	5.0	1	-14	5	3256	-4	-12
CC(=O)Nc1ccc(C(=O)NN=CC2CC3C=CC2C3)cc1 (configuration not stated)	-1.1	·	·	9	·	7	5
COc1ccc(C2CC(=O)C=C(c3cc4ccccc4s3)C2)cc1OC (configuration not stated)	6.2	·	·	12	·	6	13
CC(=O)N1CCc2c(sc3c2c(=O)n(-c2ccccc2)c(=O)n3Cc2ccccc2Cl)C1	1.6	-15	-2	4	1940	3	1
CC(=O)Nc1ccc(NC(=O)C(C)N2CCN(S(=O)(=O)c3ccc(C)cc3)CC2)cc1 (configuration not stated)	-0.3	-1	-11	0	4247	-10	4
CCN(CC(=O)Nc1ccc(NC(C)=O)cc1)C(=O)c1n[nH]c(=O)c2ccccc12	-1.7	6	-26	5	4357	9	12
O=C(CCC(=O)N1CCOc2ccc(Cl)cc21)NCc1ccccc1	-15	-2	-23	-9	5321	6	-1
O=C1C=C(OCc2ccccc2)CN1	-0.3	1	0	-5	9157	5	22
CN(Cc1ccccc1)S(=O)(=O)c1ccc(NC(=S)NC(=O)C2CCCCC2)cc1	-0.9	-1	-20	25	6748	10	8

Going on with the list.
mol	Sa RN4220 lethal	BJeLR lethal	PrP UTR inh	Sa ugtP lethal	Bead autofluor	Mtb hypoxia rep	Mtb hypoxia rep growth
Cc1ccc(OCC(=O)NNC(=O)c2ccoc2C)c(Br)c1	2.3	-4	-18	1	2233	10	1
Cc1c(NC(=O)c2cc(-c3ccc(Br)cc3)on2)c(=O)n(-c2ccccc2)n1C	1.4	10	-2	6	5874	3	3
O=C(O)C1=C[C@H](c2ccc3c(c2)OCO3)C[C@H](OCc2ccc(CO)cc2)O1	·	0	-10	·	3924	·	·
CCC(=O)N1CCN(c2ccccc2NC(=O)Cc2ccccc2)CC1	7.5	7	-12	1	2652	6	1
C/C(=N/NC(=O)Nc1ccccc1)c1ccc(C)cc1	·	-7	-13	·	2918	·	·
COc1ccc(N2CC(NS(=O)(=O)c3ccc4ccccc4c3)CC2=O)cc1OC (configuration not stated)	4.9	-1	0	2	·	3	7
O=c1[nH]c2ccc(S(=O)(=O)N3CCCCC3)cc2[nH]c1=O	0.0	1	-13	10	5852	·	·
O=C(O)COc1ccc(S(=O)(=O)NCCc2ccccc2)cc1	1.3	-4	-37	2	6378	·	·
CO/N=C/CC(=O)c1cnc(-c2ccc(Cl)cc2)s1	·	8	-30	·	2099	·	·
Fc1ccccc1N1CCN(Cc2c(F)cccc2F)CC1	4.6	-2	-15	13	11517	9	10
CCC1CO/C(=C(\C(Cl)=C(Cl)Cl)[N+](=O)[O-])N1Cc1ccc(Cl)nc1 (configuration not stated)	2.9	-15	-13	5	4019	3	-9
COc1ccc(CCn2nnnc2C(CC(C)C)N2CCN(c3ncccn3)CC2)cc1OC (configuration not stated)	1.1	-7	5	-3	4126	-3	0

Looked up by compound from the entries so far:
mol	Sa RN4220 lethal	BJeLR lethal	PrP UTR inh	Sa ugtP lethal	Bead autofluor	Mtb hypoxia rep	Mtb hypoxia rep growth
COc1ccc(N2CC(NS(=O)(=O)c3ccc4ccccc4c3)CC2=O)cc1OC (configuration not stated)	4.9	-1	0	2	·	3	7
COc1ccnc(CSC(N)=Nc2ccccc2OC)c1	6.8	13	-5	6	4296	16	7
O=C(NC1CCN(c2ncccn2)CC1)c1ccccc1Cl	3.6	2	-6	8	3461	7	2
CCC1(C)OC(c2ccccc2)=C/C(=C/C=C2C(=O)NC(=O)NC2=O)O1 (configuration not stated)	2.4	6	-12	-7	3468	-12	1
O=C1C=C(OCc2ccccc2)CN1	-0.3	1	0	-5	9157	5	22

Profiles, looked up by structure:
COc1ccc(CCn2nnnc2C(CC(C)C)N2CCN(c3ncccn3)CC2)cc1OC (configuration not stated) is entered as Sa RN4220 lethal: 1.1; BJeLR lethal: -7; PrP UTR inh: 5; Sa ugtP lethal: -3; Bead autofluor: 4126; Mtb hypoxia rep: -3; Mtb hypoxia rep growth: 0
C/C(=N/NC(=O)Nc1ccccc1)c1ccc(C)cc1 is entered as Sa RN4220 lethal: ·; BJeLR lethal: -7; PrP UTR inh: -13; Sa ugtP lethal: ·; Bead autofluor: 2918; Mtb hypoxia rep: ·; Mtb hypoxia rep growth: ·

(cont.)
mol	Sa RN4220 lethal	BJeLR lethal	PrP UTR inh	Sa ugtP lethal	Bead autofluor	Mtb hypoxia rep	Mtb hypoxia rep growth
O=C(/C=C/c1cccc([N+](=O)[O-])c1)Nc1cc(C(=O)O)cc(C(=O)O)c1	·	-4	-10	·	4127	·	·
Cc1cccc(NC(=O)CSCC(=O)Nc2ccc(S(=O)(=O)N3CCCCC3)cc2)c1	7.7	·	-13	-2	5330	7	-3
O=C(Oc1ccccc1)N1CCN(C(=O)c2ccco2)CC1	-1.3	9	0	-7	3028	-1	-1
COc1cc(C(=O)OCC(=O)N2CCC(Cc3ccccc3)CC2)cc(OC)c1OC	2.4	-1	-14	-1	5353	9	-3
Cc1noc(C)c1Cc1ccc(O)cc1	-3.7	-3	-13	2	3840	-3	-1
Cc1ccccc1-c1noc(C23CC4CC(CC(C4)C2)C3)n1	-3.5	-1	-39	5	21714*	10	10
O=C(CN1CCN(c2ccccc2)CC1)Nc1ccc2c(c1)OCCO2	8.4	-10	-3	6	3375	17	14
COC(=O)C1CC(O)CN1C(=O)c1ccco1 (configuration not stated)	0.4	-9	-21	3	?	3	-7
CCCC(C)NC(=O)c1c2c(nc3ccccc13)CCC2 (configuration not stated)	2.5	-14	-14	9	3192	3	10
CN(Cc1ccccc1)C(=O)CSc1nc2cc(C(=O)N3CCC(C(N)=O)CC3)ccc2c(=O)n1-c1ccccc1	0.6	-6	·	7	·	3	0
CCOC(=O)c1ccc(NC(=O)c2c(O)[nH]c(=O)[nH]c2=O)cc1	0.2	2	-12	-4	3244	20	17
CC(NC(=O)CCNS(=O)(=O)c1cccc2nsnc12)c1ccccc1 (configuration not stated)	-0.7	-8	-13	6	3588	0	0
